GLA inh pH 4.5: qHTS Assay for Inhibitors of Human alpha-Galactosidase at pH 4.5. Alpha-galactosidase A (Homo sapiens), P06280. purified enzyme, 4-MU-alpha-Gal fluorescence, pH 4.5. activity change, negative = inhibition, % at 105 µM. 230,000 tested, under 10 active; inconclusive = small, poorly fitted or top-dose-only inhibition, or a rising curve; inactive = flat fitted curve, though single readings scatter; no compound was filed as active;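 note: 0% = full activity with enzyme and -100% = basal without enzyme; dose as in the result columns while the protocol names 77 µM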
Target sequence (P06280 whole entry, looked up): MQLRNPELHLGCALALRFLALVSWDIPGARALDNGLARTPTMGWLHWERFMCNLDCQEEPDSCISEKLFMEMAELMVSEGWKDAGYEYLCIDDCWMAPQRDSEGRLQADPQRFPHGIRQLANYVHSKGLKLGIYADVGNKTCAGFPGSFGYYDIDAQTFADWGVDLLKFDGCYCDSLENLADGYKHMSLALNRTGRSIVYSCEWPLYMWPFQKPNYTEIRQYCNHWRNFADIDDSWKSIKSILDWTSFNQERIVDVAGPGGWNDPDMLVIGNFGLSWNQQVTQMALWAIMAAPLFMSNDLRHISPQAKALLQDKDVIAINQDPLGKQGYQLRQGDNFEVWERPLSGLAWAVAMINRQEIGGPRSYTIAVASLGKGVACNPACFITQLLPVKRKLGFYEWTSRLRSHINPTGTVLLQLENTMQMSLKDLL
Rango release inh: qHTS Assay for Inhibitors of RanGTP induced Rango (Ran-regulated importin-beta cargo) - Importin beta complex dissociation; Biochemical FRET Rango-importin beta, RanGTP-induced dissociation; Potency, µM (doses to about 46.1 µM), inactives show top-dose activity change, negative = inhibition; actives 0.071% (n = 340,000); active means falling FRET ratio curve, often poorly fitted, with flat reads before Ran was added; inconclusive means other falling curves, or compound fluorescence or quenching; inactive means flat or rising ratio curve;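 note: potency is the fitted concentration of half-maximal effect; % of control where 0% means no effect; nearly all actives have a fitted effect of over 45% in size; -100% = wells without RanGTP and RCC1; the record marks most hits as doubtful in a second field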
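Rango (0.1 uM)–importin beta (0.25 uM) complex; RanGTP-RCC1 trigger; 45 min RT; CFP/YFP FRET read.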
Rango complex inh: qHTS Assay for Inhibitors of Rango (Ran-regulated importin-beta cargo) - Importin beta complex formation. Potency, µM (highest dose often 92.2 µM), without a hit: top-dose inhibition of complex formation. actives 0.031% (n = 340,000). Rango CFP/YFP FRET sensor + importin beta, 45 min. Importin subunit beta-1 (Homo sapiens), Q14974; active = rising FRET ratio curve, often small or poorly fitted; inconclusive = mostly compound fluorescence or quenching in the first reads; inactive = flat curves in all reads;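 note: potency is the fitted concentration of half-maximal effect; 0% = DMSO wells and 100% = buffer wells lacking importin beta; nearly all actives have a fitted effect of over 15% in size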
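FRET biosensor (snurportin 1 IBB flanked by EYFP and cerulean), 50 nM, with compound 5 min, then 0.125 microM importin beta in PBS, 1 mM DTT, 0.02% Tween-20, 0.1% BSA. CFP/YFP ratio read after 45 min at room temperature; pre-read flags interference.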
miR-21 FLuc: qHTS Assay for Modulators of miRNAs and/orActivators of miR-21; HeLa miR-21 FLuc reporter, luciferase, 48 h; Potency, µM (top dose mostly 38.3 µM), inactives show top-dose reporter change, positive = more light; 340,000 tested, under 10 active; AID 2288, 2010; active = well fitted rising curve with a large enough effect; inconclusive = small, poorly fitted or top-dose-only effect; inactive = no such curve, though single readings can be large or run the other way;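 note: % of control where 0% means no effect; miR-21 action dims this reporter so a rising signal means less miR-21 action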
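HeLa cells stably expressing CMV-driven firefly luciferase with a downstream miR-21 binding sequence, endogenously expressing miR-21, were treated with titrations (up to about 40uM final) for 48 hours at 37 degree Celsius. Luciferase luminescence was read after lysis.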
* marks the source's active call; other numbers are inactive results; ? = inconclusive; . = no result given; & = joins results of further samples.

The line under a structure holds: GLA inh pH 4.5 | Rango release inh | Rango complex inh | miR-21 FLuc
Cc1cc(C)cc(-n2c(C)cc(C(=O)CSc3nnnn3C)c2C)c1
  -1.4 | -2.1% | 2.5% | -0.8%
Oc1c(C(c2ccccc2)N2CCN(Cc3ccccc3)CC2)sc2ncnn12 (stereo not given)
  1.2 | 24.7% | -0.3% | 0.6%
C#CCNC(=O)C1=C[C@@H](c2ccc(Br)cc2)C[C@@H](OCc2ccc(CO)cc2)O1
  -0.8 | -2.5% | ? | -19.5%
CN=C(NC#N)SCC(=O)c1ccc(Cl)cc1Cl
  0.0 | -13.6% | -1.7% | -1.5%
Cc1ccc2nc(/C(C#N)=N/O)[nH]c2c1
  8.6 | 5.0% | ? | -8.4%
CN1OC[C@@H]2CN(Cc3ccccc3)[C@H](c3cccc(-c4ccc(C#N)cc4)c3)C[C@@H]21
  . | 8.8% | -1.7% | .
COc1cc(/C=C(\C#N)c2nc3ccccc3s2)ccc1OCC(=O)Nc1ccccc1
  5.9 | ? | ? | -12.3%
CCOc1ccccc1NC(=O)CN(c1ccc(OC)cc1)S(=O)(=O)c1c(C)[nH]c(=O)[nH]c1=O
  . | -6.2% | -3.4% | -2.7%
CC1CCN(C(=O)C(=O)Nc2sc3c(c2C(=O)O)CC(C)(C)OC3)CC1
  . | 6.3% | 3.1% | -3.6%
CCOc1cc(C(=O)Nc2ncn[nH]2)cc(OCC)c1OCC
  8.0 | -8.7% | 2.6% | -0.9%
COc1ccc(-c2c(=O)n(OCc3ccccc3[N+](=O)[O-])c3ccccc3[n+]2[O-])c(OC)c1
  -11.5 | -5.6% | ? | -1.2%
COc1cccc(OCc2cc(C(=O)NC3CCOCC3)no2)c1
  . | 4.7% | -1.4% | -47.4%
Cc1ccc(Nc2nc(C3CC3)cs2)cc1
  -3.4 | . | . | -70.2%
O=C(NNC(=S)NC(=O)c1cccc([N+](=O)[O-])c1)c1ccc(O)cc1
  . | -14.3% | -0.6% | -16.0%
COc1ccc2oc(C(=O)OC(C)C(=O)N3CCC(C)CC3)c(C)c2c1 (stereo not given)
  . | 38.4% | 1.6% | .
O=C(C1CC1)N1CCN=C1SCc1cccc(F)c1
  7.4 | -1.1% | 0.7% | -3.8%
Cc1ccc(Nc2c([N+](=O)[O-])ccc3c2=NC2(CCCCC2)N=3)cc1
  -0.4 | 2.2% | -3.8% | -1.5%
Cc1ccccc1CCN(CC(=O)NCc1ccc(F)cc1)C(=O)c1csnn1
  . | 3.9% | -1.3% | -0.3%
O=C1N=C(N2CCOCC2)S/C1=C\c1ccccc1OS(=O)(=O)c1ccccc1
  -2.7 | 16.3% | 1.6% | -0.6%
C=C(C)c1cccc(C(C)(C)NC(=O)NCc2ccc(OC)cc2)c1
  -7.6 | 4.9% | -2.3% | 0.5%
COc1ccc(OC)c(Nc2nc(-c3c(C)nc4ncccn34)cs2)c1
  . | 6.8% | -0.6% | 9.8%
O=c1cc(N2CCCCC2)[nH]c(=O)n1C1CCCCC1
  7.2 | 29.8% | 2.2% | -3.2%
Cn1c(=O)[nH]c2cc(Cl)cnc21
  6.8 | ? | ? | -4.4%
CC1C(=O)N2CCCc3cc(S(=O)(=O)N4CCN(c5ccccc5F)CC4)cc1c32 (stereo not given)
  . | 6.9% | -3.5% | 5.7%
COc1ccc2c(c1)c(C(=O)N/N=C/c1ccc(O)c(O)c1)c(C)n2C
  -6.0 | -8.5% | 2.9% | -3.7%
Cc1ccc(OCCOCCOc2ccc(Br)cc2/C=N\NC(=O)c2ccncc2)cc1
  -15.0 | 10.9% | -1.7% | 8.1%
CS(=O)(=O)N1CCC(C(=O)Nc2ccc3c(c2)OCCO3)CC1
  8.1 | -9.5% | 5.0% | -5.9%
Cc1ccc(NC(=O)C(=O)NCCOc2ccccc2Cl)cc1
  1.3 | -7.9% | 0.0% | -1.0%
Cc1ccc(N=C2S/C(=C/c3cccc(OCC(=O)O)c3)C(=O)N2C)cc1C
  . | 2.2% | 2.8% | 2.4%
COc1ccccc1CC(=O)N1CCN(c2ccc([N+](=O)[O-])cc2)CC1
  -3.2 | -14.3% | -1.2% | 13.3%
CCc1c(O)nc(SCC(=O)N2CCCCC2)n(-c2ccccc2C)c1=O
  -24.5 | -3.2% | -3.1% | -3.8%
O=C(CSCC(=O)N1CCCCC1)OCC(=O)c1c[nH]c2ccccc12
  -12.4 | 0.6% | 2.8% | -0.3%
COc1ccccc1NC(=S)N(CCCN1CCOCC1)Cc1cn(C)c2ccccc12
  7.0 | 5.3% | 4.1% | -19.0%
O=C(C1CCN(Cc2cccs2)CC1)N1CCN(Cc2ccc3c(c2)OCO3)CC1
  4.9 | 0.5% | 0.3% | 8.7%
CC(C)Cc1c(O)nc(SCC(=O)Nc2ccc3c(c2)CCC3)[nH]c1=O
  4.9 | -1.4% | 0.2% | -14.2%
CCCc1nnc(NC(=O)Nc2ccccc2OC)s1
  5.9 | 1.6% | 1.2% | -63.3%
CN(n1cnc2ccccc2c1=O)S(C)(=O)=O
  -9.7 | 3.0% | -2.2% | -3.7%
O=C(NCCc1cccc(F)c1)C1CCN(S(=O)(=O)c2ccc(F)cc2)CC1
  . | -2.6% | 0.4% | 0.2%
COc1ccc(CC(=O)Nc2nnc(SCC(=O)NCc3ccco3)s2)cc1OC
  1.3 | -5.3% | ? | -0.3%
Cc1cc(C)cc(C(=O)NCC(=O)OCc2nc(N)nc(Nc3ccccc3C)n2)c1
  . | -8.0% | 3.6% | .
O=c1cc(CSc2nnc(Nc3ccccc3F)s2)nc2sccn12
  6.1 | 4.7% | 1.6% | 26.0%
O=C(Nc1ccc(NS(=O)(=O)c2ccccc2)cc1)c1cccnc1
  8.8 | -0.1% | -1.1% | 5.6%
O=[N+]([O-])c1ccc(N2CCCCC2)s1
  -2.5 | -8.7% | 1.4% | -8.5%
COc1ccc(C(=O)NC2CCCCC2)cc1S(=O)(=O)N1CCOCC1
  . | 5.1% | -3.7% | -4.2%
CC(=O)Nc1ccc(N(C(=O)CNC(=O)c2ccco2)C(C(=O)NCC2CCCO2)c2ccccc2)cc1 (stereo not given)
  -4.8 | -10.5% | -1.6% | -2.4%
Cc1csc(NC(=O)CSc2nnc(NC(=O)NC(C)(C)C)s2)n1
  . | -10.7% | -2.8% | .
O=C(NCc1ccc(C(F)(F)F)cc1)C1CC(c2ccccc2C(F)(F)F)=NO1 (stereo not given)
  -3.9 | -3.8% | 1.0% | -3.7%
CC(C)C(=O)c1c(C(C)C)nn2ccccc12
  0.5&0.4 | -14.2% | 4.8% | .
COc1cccc(-c2nc(CS(=O)(=O)CC(=O)N3CCN(C)CC3)c(C)o2)c1
  -1.6 | 0.5% | 0.1% | -3.1%
O=C(NC1CCCCC1)C1CCC(CNS(=O)(=O)c2ccccc2)CC1 (stereo not given)
  . | -12.4% | 0.0% | -1.7%
COCCn1c(SCc2nnc(-c3ccccc3)o2)nc2sc3c(c2c1=O)CCC3
  3.6 | 4.1% | -0.9% | -6.7%
CCC(=O)c1ccc(N2CCN(C(=O)c3cc([N+](=O)[O-])ccc3F)CC2)c(F)c1
  -11.1 | 10.6% | -1.0% | 4.2%
S=c1[nH]nc(C(c2ccccc2)C2CCCCC2)o1 (stereo not given)
  -13.4 | 11.4% | -1.4% | 3.6%
CS(=O)(=O)c1ccc(C(=O)OCC(=O)NC2CCS(=O)(=O)C2)cc1[N+](=O)[O-] (stereo not given)
  -4.4 | 0.5% | 0.6% | -0.6%
COC(C/C=C\[C@H](O)[C@@H](C)OCc1ccccc1)OC
  . | -14.6% | 1.2% | .
CCOC(=O)C(C)Oc1c(C(=O)OC)sc2ncccc12 (stereo not given)
  13.7 | 12.4% | 6.4% | -2.8%
Cc1ccc(C(=O)NCCCNC(=O)COc2ccc(C)c(C)c2)cn1
  . | 0.8% | 0.1% | -0.2%
C/C(=C\[C@@H](NP(=O)(c1ccccc1)c1ccccc1)c1ccccc1)CO[Si](c1ccccc1)(c1ccccc1)C(C)(C)C
  -2.9 | 12.2% | 0.9% | .
Cc1ccc(NC(=O)CCCc2nc3ccccc3s2)c(O)c1
  0.5 | 9.7% | -2.9% | -9.8%
Cc1ccc(CNC(C)(C)CO)cc1
  -0.3 | -9.9% | 1.2% | -4.8%

(list continues)
The line under a structure holds: GLA inh pH 4.5 | Rango release inh | Rango complex inh | miR-21 FLuc
O=C1CC(c2ccco2)CC(O)=C1C=Nc1ccccc1-c1ccccc1 (stereo not given)
  -3.3 | 0.4% | -0.9% | 5.6%
COc1cccc(NCc2cc(=O)oc3cc(C)c(O)cc23)c1
  . | -14.3% | 2.7% | -21.4%
S=c1[nH]nc(-c2ccc(Cl)cc2)n1CCCN1CCOCC1
  -3.7 | -7.2% | 1.7% | -4.1%
CCCN(Cc1ccco1)S(=O)(=O)c1ccc(OC)c(OC)c1
  3.0 | 0.2% | -0.7% | -1.6%
COc1ccc(OC)c(NC(=O)C2CC(=O)N(CCc3ccccc3)C2)c1 (stereo not given)
  -3.0 | 0.6% | -2.4% | 1.0%
O=C(Nc1ccc(N2CCCC2)cc1)c1ccc([N+](=O)[O-])cc1Cl
  -1.2 | 8.0% | 0.9% | -13.5%
COc1ccc(N2CCN(CCNC(=O)Nc3ccc(C)c(Cl)c3)CC2)cc1
  . | ? | 3.9% | 7.7%
C#CCN1C=CC(=O)[C@@H](OC(=O)Nc2ccc(C)cc2)[C@H]1c1ccccc1Br
  . | 21.9% | 3.5% | .
N#CCCSCc1ccc2oc(C(=O)O)cc2c1
  -6.8 | 3.4% | 2.4% | -3.5%
O=C(/C=C/c1ccccc1[N+](=O)[O-])NCCN1C(=O)S/C(=C\c2ccc(F)cc2)C1=O
  9.5 | 7.8% | 3.1% | -7.0%
CCN(CC)CCn1c2c(c(SCC(=O)Nc3ccc(C(C)C)cc3)nc1=O)CCCC2
  . | 8.0% | 0.0% | .
Cc1cccc(CC(=O)N2CCOCC2)c1
  . | 7.2% | 0.4% | -3.4%
COc1ccc(NC(=O)c2ccccc2OCc2ccc(F)cc2)c(OC)c1
  . | -22.2% | -4.6% | -14.1%
COC(=O)c1ccccc1NC(=O)C1=CC(c2cccs2)=NS(=O)(=O)N1C
  . | -16.4% | ? | -3.4%&-8.9%
COCc1c(C(=O)N/N=C(\C)c2ccncc2)nnn1-c1nonc1N
  . | 1.4% | 0.2% | -0.6%
COCC(=O)N1C[C@H]2CON(C)[C@H]2C[C@H]1c1cccc(-c2ccc(C#N)cc2)c1
  . | -2.6% | 0.0% | .

Some of the entries so far, bar-delimited.
molecule | GLA inh pH 4.5 | Rango release inh | Rango complex inh | miR-21 FLuc
O=C1CC(c2ccco2)CC(O)=C1C=Nc1ccccc1-c1ccccc1 (stereo not given) | -3.3 | 0.4% | -0.9% | 5.6%
COc1cccc(NCc2cc(=O)oc3cc(C)c(O)cc23)c1 | . | -14.3% | 2.7% | -21.4%
S=c1[nH]nc(-c2ccc(Cl)cc2)n1CCCN1CCOCC1 | -3.7 | -7.2% | 1.7% | -4.1%
CCCN(Cc1ccco1)S(=O)(=O)c1ccc(OC)c(OC)c1 | 3.0 | 0.2% | -0.7% | -1.6%
COc1ccc(OC)c(NC(=O)C2CC(=O)N(CCc3ccccc3)C2)c1 (stereo not given) | -3.0 | 0.6% | -2.4% | 1.0%
O=C(Nc1ccc(N2CCCC2)cc1)c1ccc([N+](=O)[O-])cc1Cl | -1.2 | 8.0% | 0.9% | -13.5%
COc1ccc(N2CCN(CCNC(=O)Nc3ccc(C)c(Cl)c3)CC2)cc1 | . | ? | 3.9% | 7.7%
C#CCN1C=CC(=O)[C@@H](OC(=O)Nc2ccc(C)cc2)[C@H]1c1ccccc1Br | . | 21.9% | 3.5% | .
N#CCCSCc1ccc2oc(C(=O)O)cc2c1 | -6.8 | 3.4% | 2.4% | -3.5%
O=C(/C=C/c1ccccc1[N+](=O)[O-])NCCN1C(=O)S/C(=C\c2ccc(F)cc2)C1=O | 9.5 | 7.8% | 3.1% | -7.0%
CCN(CC)CCn1c2c(c(SCC(=O)Nc3ccc(C(C)C)cc3)nc1=O)CCCC2 | . | 8.0% | 0.0% | .

Some of the compounds tested (hit frequency here may not be typical).
